Bioassay records from PubChem BioAssay.
NPYLR7 ag: activates Aedes aegypti NPYLR7 receptor | activation, % at 10 µM | HEK293T NPYLR7/Galpha15, GCaMP6s calcium fluorescence | AID 1259423 | actives 0.15% (n = 270,000); in the data active = activation above about 40%;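 note: 0% = vehicle and 100% = reference agonist at the receptor; some compounds past the cut are filed as inactive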
NPYLR7 ag max-min: also measured in NPYLR7 ag; calls as there; activation, %; measured here: Max-Min RFU normalised activation; some inactives read as strong as hits;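 span of the calcium signal over five minutes; 0% = vehicle and 100% = native peptide agonist; compound fluorescence can raise it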
The depositor's hits bear a star; & = joins results of further samples. Not all compounds are listed (hit frequency here may not be typical).

Compound	NPYLR7 ag	NPYLR7 ag max-min
COCCn1cnnc1Cn1ccnc1-c1ccsc1	13	11
CCc1[nH]c2c(CNS(=O)(=O)c3cnn(C)c3C)cc(C)cc2c1C	-1	-5
O=C(O)c1cc2n(n1)CCN(Cc1ccc(C(F)(F)F)cc1)C2=O	-10	-7
CCCc1nc(NC(=O)CCNC(=O)C2CC2C)sc1CC (stereo not given)	0	-1
O=C(NC1CCN(c2ccccc2C(=O)NCc2ccncc2)CC1)c1cc(F)cc(F)c1	-1	7
CCOCCCn1c(C)c(C)n2c3c(=O)n(CCc4ccccc4)c(=O)n(C)c3nc12	-1	-1
O=C(Nc1cnn(CC(=O)N2CCC(Oc3ccccc3F)CC2)c1)c1ccc2c(c1)OCO2	24	12
CN(C(=O)COc1ccc(Cl)cc1C(N)=O)C1=CCCC1	20	12
CC1CC(Nc2ncnc3nc[nH]c23)CC(C)(C)C1 (stereo not given)	-3	-4
Cc1nc(CCNC(=O)C2CCC(=O)N(Cc3ccccn3)C2)nc2c1CCCC2 (stereo not given)	-9&2	-9&-1
O=C1CC(NCc2cnc[nH]2)CN1CCc1cccc(Cl)c1 (stereo not given)	9	1
Brc1cnc(OCc2ccccc2)nc1OCc1ccccc1	-2	-4
CC1C2C3CC4C5C3C1(Br)C5C(O)(c1ccccc1)C42 (stereo not given)	2	2
COc1cccc(C(C2Sc3nc(-c4ccco4)nn3C2=O)N2CCN(C(C)=O)CC2)c1 (stereo not given)	0	-3
Cc1cccc(CN2N=C(c3ccc(F)cc3)Cn3c2nc2c3c(=O)n(C)c(=O)n2C)c1	11	16
CCC(C)OC(=O)C1=C(C)NC2=C(C(=O)CC(c3ccc(Cl)cc3)C2)C1c1ccc(Cl)c(Cl)c1 (stereo not given)	-7	-7
CCCCN(C)C(=O)c1nc2ccccn2c1CN1CCC(C(=O)OCC)CC1	4	7
CCC1CN(C(=O)NCCc2ccc(Cl)s2)CCO1 (stereo not given)	-24	-25
COc1nc(-c2cccc(C(F)(F)F)c2)n(-c2ccc(NC(=O)C(Cl)Cl)cc2)n1	-8	-7
CCCCCCn1c(SCCCC)nc2c1c(=O)[nH]c(=O)n2C	0	-5
COc1ccc(-c2noc(Cn3ccn4nc(-c5ccc(C)cc5)cc4c3=O)n2)c(OC)c1	-3	-8
Cc1c(C)c(C)c(S(=O)(=O)Nc2cccc(C(N)=O)c2)c(C)c1C	4	4
O=C(N1CCCC(Nc2ccccc2)C1)C1(c2ccccc2)CC1 (stereo not given)	1	-2
Nc1ncccc1CN1CCCC1c1nc(-c2ccccc2)no1 (stereo not given)	-1	2
COC(=O)c1ccc(C)c(-n2c(N)c(C(=O)NCc3ccc(OC)cc3)sc2=S)c1	5	-4
CCc1nc2ccc(C(=O)Nc3cccc(OC)c3)cn2c1N(CC)CC(=O)N(C)C	-1	29
CN1CCC(NC(=O)Nc2cccc([N+](=O)[O-])c2)CC1	11	6
O=C(NCc1ccccn1)C1COC2(CCCCC2)N1C(=O)c1cccc(C(F)(F)F)c1 (stereo not given)	21	24
COc1ccc(CN(C(=O)OC(C)(C)C)C2CCC(C(=O)N3CCOC(COCc4ccccc4F)C3)CC2)cc1C (stereo not given)	26	16
CC(C)Cc1cc(C(=O)NCc2cnn3ccccc23)n(C)n1	-5	-8
COc1ccc(OCc2nc(C(=O)N3CCN4CCNC(=O)C4C3)co2)cc1 (stereo not given)	2	0
CC(C)(C)n1cc(C(=O)Nc2cccc(-c3cn4ccsc4n3)c2)c2cccnc21	1	-1
Cc1cccc(N2CCN(CC(=O)N3CCCn4cncc4C3)CC2)c1	3	15
O=C1NC(=NC2CCCCC2)SC1=Cc1ccc2c(c1)OCO2	-1	5
Clc1ccc(NN=C2CCN(Cc3ccccc3)CC2)cc1	6	2
CSc1ccc(-c2ccc(-n3cccn3)cc2)nn1	-9	-12
CC(=O)c1ccc(NC(=O)CSc2nc(=O)n3ccccc3n2)cc1	1	-2
O=c1[nH]ccc2c(S(=O)(=O)N3CCCNCC3)cccc12	-14	-18
Cc1ccc(C)n1-c1ccc(N2C(=O)/C(=C/c3ccc([N+](=O)[O-])cc3)C=C2c2ccccc2)cc1	0	8
CC(C)Nc1ncc(C(=O)N2CCn3cncc3C2)cn1	0	-2
Nc1ncc(Br)cc1S(=O)(=O)NCc1cccnc1	2	-1
Cc1cc(CNC(=O)N2CCCN(Cc3ccccc3)CC2)no1	4	2
CCOc1nc(-c2ccc(F)cc2)n(-c2ccc(NC(=O)c3ccc4c(c3)OCO4)cc2)n1	29	27
COc1ccc(-c2ccc(C(O)CN3CCOCC3)cc2)cc1Cl (stereo not given)	6	2
O=C(CN1CCC(O)CC1)Nc1ccc(Sc2ccc(Br)cc2)cc1	0	0
Cc1cc(C)n(Cc2cc(C(=O)NC[C@H]3C[C@H]4C=C[C@H]3C43CC3)n[nH]2)n1	22	10
O=C(c1[nH]ncc1Cl)N1CCC(N2CCCC2=O)CC1	9	6
Cc1cccc2cc(CN3CCOCC(CN(C)C)C3)c(=O)[nH]c12 (stereo not given)	3	7
COc1ccnc(CN2CCC(N3CCCC(C(=O)N4CCCC4)C3)CC2)c1 (stereo not given)	2	0
Cc1nn(C)cc1C(C)n1ccnc1-c1nn(C)c2cccc(Cl)c12 (stereo not given)	2	0

Further records follow:
Every second line gives: NPYLR7 ag, NPYLR7 ag max-min
> Cn1ccnc1CN(C(=O)CC1C(=O)NCCN1CC(C)(C)C)C1CC1 (stereo not given)
    2, 0
> Cc1nn(C)c(C)c1C(C)NC(=O)N1CCSC(C)C1C (stereo not given)
    -14, -15
> CN1CCn2nc(C(=O)NCCSc3nccn3C)cc2C1
    9, 1
> O=C(CSc1nnc(-c2ccccc2)n1-c1ccccc1)N/N=C\c1cc(Br)ccc1O
    -4, -11
> CSc1nnc(-c2cc(Br)ccc2N)c(=O)[nH]1
    1, -1
> CC1(C)Cc2c(sc3nc4n(c(=O)c23)CCS4)CO1
    1, -1
> CC(NC(=O)Cc1n[nH]c(=O)c2ccccc12)c1cccc2ccccc12 (stereo not given)
    -3, -8
> Cn1c(NC(=O)Cc2ccccc2)cc(=O)n(C)c1=O
    15, 17
> COc1cccc(CC2(C(=O)O)CCN(c3nc(C)ncc3C)CC2)c1
    4, -1
> CCn1c(SCC(=O)c2cc(C)ccc2C)nnc1-c1ccco1
    9, 11
> Cn1ncc(CN2CCCC2C(=O)NCC(F)(F)F)c1C(F)(F)F (stereo not given)
    1, 14
> Cc1ccc(NC(=O)CSc2nnc(Cc3ccccc3)c(=O)[nH]2)c(C)c1
    -5, -6
> Cc1ccc(OCCN2CCC2(C)C(=O)NC2CCN(Cc3ccccc3)CC2)cc1 (stereo not given)
    5, 0
> O=C(Nc1cccc(Cl)c1)N(CC(=O)N1CCc2sccc2C1COc1ccccc1F)CC1CCCO1 (stereo not given)
    4, 3
> CCn1nnc2c(N3CCC4(CC3)OCCO4)ncnc21
    10, 3
> O=C(O)c1coc2ccccc2c1=O
    -3, -2
> COc1cc(OC)c(C2CC(c3ccc(Cl)cc3)=Nc3nnnn32)cc1OC (stereo not given)
    3, 5
> CN1CCC(=C2c3ccccc3CCc3cccnc32)CC1
    9, 13
> O=C(c1cc(COc2cccc(C(F)(F)F)c2)on1)N1CCCN(c2ncccn2)CC1
    9, 4
> COC(=O)CCCC(=O)N1CCC(CCC(=O)Nc2cccc(C)c2)CC1
    9, 3
> c1ccc(C2CNCc3c2ccc2ccccc32)cc1 (stereo not given)
    -5, -7
> COc1ccc(NC(=O)C2CCN(C(=O)[C@@H]3CCCN3C(=O)Nc3ccc(Br)cc3Cl)CC2)cc1
    27, 26
> CC(C)(C)c1ccc(CN(CCC(c2ccccc2)c2ccccc2)Cc2nc(C(=O)O)cs2)cc1
    5, 5
> Cc1cccc(-n2c(SCC#N)nc3c(-c4ccccc4)c[nH]c3c2=O)c1
    2, -5
> COC(=O)c1sccc1NC(=O)Cc1cc(OC)c(OC)c(OC)c1
    -1, -6
> CC(C)(C)c1ccc(C(=O)NCC(=O)N=Nc2c(O)[nH]c3ccc([N+](=O)[O-])cc23)cc1
    2, -7
> O=C(NNS(=O)(=O)c1ccc(Br)cc1)c1ccccc1Cl
    9, 13
> CCN(CC1=CCCN(Cc2c(C)noc2C)C1)C(=O)COC
    4, 1
> C=c1cc(C)n(CC(=O)Nc2ccccc2OC)c(=O)c1=C1N=C(c2ccccc2)NO1
    -3, -8
> CC=CC(=O)OCC(=O)c1ccc(N(C)S(C)(=O)=O)cc1
    7, 4

Quoted from the entries so far for reference:
Every second line gives: NPYLR7 ag, NPYLR7 ag max-min
> COc1cc(OC)c(C2CC(c3ccc(Cl)cc3)=Nc3nnnn32)cc1OC (stereo not given)
    3, 5
> CN1CCC(=C2c3ccccc3CCc3cccnc32)CC1
    9, 13
> O=C(c1cc(COc2cccc(C(F)(F)F)c2)on1)N1CCCN(c2ncccn2)CC1
    9, 4
> COC(=O)CCCC(=O)N1CCC(CCC(=O)Nc2cccc(C)c2)CC1
    9, 3

Compounds above with a CF3 group, in the order listed:
Every second line gives: NPYLR7 ag, NPYLR7 ag max-min
> O=C(O)c1cc2n(n1)CCN(Cc1ccc(C(F)(F)F)cc1)C2=O
    -10, -7
> COc1nc(-c2cccc(C(F)(F)F)c2)n(-c2ccc(NC(=O)C(Cl)Cl)cc2)n1
    -8, -7
> O=C(NCc1ccccn1)C1COC2(CCCCC2)N1C(=O)c1cccc(C(F)(F)F)c1 (stereo not given)
    21, 24
> Cn1ncc(CN2CCCC2C(=O)NCC(F)(F)F)c1C(F)(F)F (stereo not given)
    1, 14
> O=C(c1cc(COc2cccc(C(F)(F)F)c2)on1)N1CCCN(c2ncccn2)CC1
    9, 4

Next compounds follow:
Every second line gives: NPYLR7 ag, NPYLR7 ag max-min
> COCCCNC(CC(=O)Nc1ccc(N=Nc2ccccc2)cc1)C(=O)O (stereo not given)
    -6, -7
> CCc1nnc2c3c4c(sc3ncn12)CC(C)CC4 (stereo not given)
    2, 1
> CCc1nc2ccc(C(=O)Nc3ccc4c(c3)OCC(=O)N4)cn2c1N(C)C(=O)c1ccncc1
    21, 18
> Cc1ccccc1C(O)c1ccncc1 (stereo not given)
    7, 6
> Cc1cc(NC(=O)CCN2CCN(C)CC2C)no1 (stereo not given)
    13, 12
> O=C(CCc1ccco1)N1CCN(Cc2cccc(-c3noc(-c4ccccc4)n3)c2)CC1
    5, 14
> C=C(C)COc1ccc(-c2nc(N)ncc2-c2ccc(Br)cc2)c(O)c1
    3, -2
> NC(=O)c1cnc(N2CCCC2c2ccc3c(c2)OCCO3)c(Cl)c1 (stereo not given)
    11, 5
> CN1CCN(C2=CC(=[N+]3CCCC3)CC(C)(C)C2)CC1
    13, 7
> Cc1cc(C)cc(N(C)C(=O)c2ccc(NC(=O)c3ccccn3)cc2)c1
    14, 14
> Cc1ccc(CNC(=O)c2cn[nH]c2N)cc1
    -6, -8
> Cc1ccc(C)c(N(C)S(=O)(=O)c2c(C)nn(C)c2C)c1
    15, 7
> CC1CCN(C(=O)CC(NC(=O)c2ccccc2)c2ccccc2)CC1 (stereo not given)
    7, 12
> c1ccc(CSc2ccc(-c3cccnc3)nn2)nc1
    11, -1
> O=C(O)C1(CCCc2ccccc2)CCCN(c2ncccn2)C1 (stereo not given)
    0, 5
> O=C(CN1CCc2c([nH]c3ccccc23)C1c1cc(Cl)cc2c1OCO2)Nc1ccccc1 (stereo not given)
    4, 5
> CCCN(Cc1cccc(F)c1)Cc1ccc(C(O)(CC)CC)o1
    13, 11
> CN(C)CCCn1c2c(c(SCC(=O)Nc3cc(C(F)(F)F)ccc3Cl)nc1=O)CCC2
    9, 18
> CCc1ccc2occ(CC(=O)N(C)C(C)c3ccncc3)c2c1 (stereo not given)
    5, -5
> COC(=O)c1ccc([C@@H]2C[C@H]3CN(CCc4ccccc4)C(=O)[C@]34CCCN24)cc1
    10, -1
> O=C(NCc1cccnc1N1CCOCC1)c1ccc2cccc(Cl)c2n1
    0, -3
> CCc1nc2ccc(C(=O)N(C)Cc3ccccc3)cn2c1N(C)C(=O)COc1ccccc1
    -3, -9
> CCc1ccc(NC(=O)NCCCn2nc(-c3ccncc3)ccc2=O)cc1
    9, 0
> O=C1c2ccccc2S(=O)(=O)N1c1ccc(Cl)cc1
    8, 3
> C=CCn1cc(CNC(c2nc3ccc(C)cc3[nH]2)C(C)C)c(C)n1 (stereo not given)
    7, 2
> CCCCN(CC(=O)N(CCc1c[nH]c2ccccc12)Cc1ccc(F)cc1)C(=O)c1cccc(Br)c1
    4, 10
> Cc1ncsc1C(=O)Nc1ccc(C(C)(C)C)nn1
    5, 3
> CCc1ccc(S(=O)(=O)c2cn(C)c3ccc(CC)cc3c2=O)cc1
    -5, -10
> CCCn1ncc(CN2CCN(c3ccnc4ccccc34)CC2)c1C
    -1, -2
> COc1ccc(NC2CCCN(C(=O)c3cn(C)c4ccccc34)C2)cc1 (stereo not given)
    2, -1
> COc1ccc(OC)c(S(=O)(=O)N2CCC(c3nc(-c4ccccc4F)no3)CC2)c1
    5, 4
> CCc1nc2ccc(C(=O)N3CCN(c4ccccc4)CC3)cn2c1N(C=O)CC
    -6, -10
> CN(C)CC1(O)CCCN(S(=O)(=O)Cc2ccc(F)cc2)CC1 (stereo not given)
    7, 5
> Cc1cc(C)n(CCC(=O)NC2CCCN(c3ncccn3)C2)n1 (stereo not given)
    2, -2
